rRNA inh HTS: reduced GFP signal of wild-type E. coli, primary screen, bacterial rRNA inhibitor project, GFP/RFP fluorescence, OD600, single point | E. coli WT GFP vs humanized-ribosome RFP mutants, 24 h; stronger effect = lower value; DMSO median 0, no signal -100 | GFP signal change (wild-type ribosome), % (no concentration beside the values) | 350,000 tested, 1.6% active;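 active = significant combined selectivity score with lowered wild-type GFP, culture density cut under 30%, mutant RFP and density less affected; inactive = any of these conditions unmet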; also: one replicate is shown; some compounds called inactive have numbers as strong as hits
ALR inh: inhibitors of human ALR sulfhydryl oxidase, primary screen, biochemical, H2O2 detection, HRP-luminol luminescence, single point. 290,000 tested, 3.8% active. AID 485317, 2010. purified ALR, DTT oxidation. inhibition, % (concentration not given with the values);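 active = mean and each replicate at 75% or more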;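 also: stock transfer was 7.5 nL into about 7.5 µL; 0% = neutral wells and 100% = wells with inactivated enzyme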
Target sequence (P55789 whole entry, looked up): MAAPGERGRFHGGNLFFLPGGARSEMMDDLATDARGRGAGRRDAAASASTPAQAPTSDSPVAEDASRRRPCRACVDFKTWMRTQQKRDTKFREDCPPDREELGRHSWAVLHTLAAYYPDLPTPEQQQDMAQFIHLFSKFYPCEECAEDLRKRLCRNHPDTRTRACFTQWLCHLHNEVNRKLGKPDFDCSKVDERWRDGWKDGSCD
UCH37 DUB inh: inhibitors of human UCH37 deubiquitinase, primary screen, biochemical, Ub-AMC cleavage, fluorescence. Ubiquitin carboxyl-terminal hydrolase isozyme L5 (Homo sapiens), Q9Y5K5. purified proteasome/UCH37. inhibition, % (concentration not given with the values). 330,000 tested, 0.33% active;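 active = mean of two replicates above 20%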;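 also: 0% = compound-free wells with enzyme and 100% = wells lacking proteasome; stock transfer was 100 nL into about 20 µL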
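Assay system: Proteasome-bound UCH37. Buffer or medium: pH 7.4 Tris-HCl (50 mM) with ovalbumin, ATP-MgCl2, DTT. Incubation: 30 min preincubation with enzyme, 25 min cleavage at room temperature. Measured by: fluorescence, ex 355 nm, em 460 nm. Read-out basis: percent inhibition. Control set: wells without proteasome as full block, compound-free enzyme plus substrate as uninhibited.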
Beta2AR agonist: beta2AR agonists driving receptor internalization, primary screen, cell-based, FAP fluorogen, flow cytometry; Beta-2 adrenergic receptor (Homo sapiens), P07550; Am2.2-beta2AR cells; reference of the scale not given here; response, % (no concentration beside the values); 340,000 tested, 0.43% active; AID 504454, 2011;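 active = response above a set limit, near 3 SD of response in nonfluorescent compounds, cut at about 42% in these data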;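 also: stock transfer was 100 nL into about 11 µL; a reference agonist was the positive control; negative values mostly stem from fluorescent compounds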
Target sequence (P07550 whole entry, looked up): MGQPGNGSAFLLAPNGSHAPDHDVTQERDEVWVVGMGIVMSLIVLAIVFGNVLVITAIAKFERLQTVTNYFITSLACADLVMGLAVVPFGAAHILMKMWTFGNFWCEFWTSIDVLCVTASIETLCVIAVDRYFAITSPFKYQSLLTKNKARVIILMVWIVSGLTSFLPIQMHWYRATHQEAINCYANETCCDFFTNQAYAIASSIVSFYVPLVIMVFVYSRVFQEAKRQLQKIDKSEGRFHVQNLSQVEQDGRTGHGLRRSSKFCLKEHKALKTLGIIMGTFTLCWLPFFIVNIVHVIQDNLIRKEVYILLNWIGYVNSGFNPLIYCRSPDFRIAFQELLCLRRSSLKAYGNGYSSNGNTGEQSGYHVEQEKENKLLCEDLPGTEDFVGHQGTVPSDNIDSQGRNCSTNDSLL
E coli growth: E. coli growth inhibition, primary screen, OD600; Escherichia coli growth, 23 h; stronger effect = lower value; 330,000 tested, 0.21% active; OD600 absorbance (concentration not given with the values);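 active = OD600 absorbance below the run mean of sample wells minus 3.6 SD, in any replicate, cut at about 0.56 in these data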;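 also: stock transfer was 300 nL into about 60 µL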
FGF22 binding: binders of human FGF22 protein, primary screen, FGF22 synaptogenesis inhibitor project, biophysical, thermal shift, single point. Fibroblast growth factor 22 (Homo sapiens), Q9HCT0. recombinant FGF22 thermal shift, SYPRO orange fluorescence; percent of sucrose octasulfate shift, DMSO zero. calls only at 9.99 µM. 340,000 tested, 1.5% active;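 active = melting point raised past a set limit in the mean and every replicate; three in four hits are not shown here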
Target sequence (Q9HCT0 whole entry, looked up): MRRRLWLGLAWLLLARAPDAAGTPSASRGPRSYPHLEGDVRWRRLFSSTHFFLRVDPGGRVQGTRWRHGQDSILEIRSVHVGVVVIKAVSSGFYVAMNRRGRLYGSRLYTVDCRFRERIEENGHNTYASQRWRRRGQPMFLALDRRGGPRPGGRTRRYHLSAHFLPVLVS
HNF4A DNA FP: change in binding of human HNF4A to DNA, primary screen, biochemical, fluorescence polarization, FITC-DNA | AID 1224865, 2016 | 1 h | activity change, % at 10 µM | Hepatocyte nuclear factor 4-alpha (Homo sapiens), P41235 | 360,000 tested, 0.3% active; in the data active = activity change above about 30%, passing the limit was not always enough;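 also: controls were the assay level and a saturating level of protein; the project sought stronger binding though the title names inhibitors; some compounds called inactive have numbers as strong as hits; positive values seem to mean higher polarization but the record does not say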
rRNA inh HTS OD600: also measured in rRNA inh HTS; calls as there; OD600 change, %; measured here: OD600 growth;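 optical density of the mix in the first replicate; 0 = DMSO median and -100 = no signal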
rRNA inh HTS RFP: second read-out of rRNA inh HTS, no call of its own (marks repeat the call); RFP signal change, %; measured here: RFP humanized mutant strains;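 first replicate; 0 = DMSO median and -100 = no signal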
Numbers without * were called inactive; i = inactive; . = not tested or not shown. Only part of the results is shown; rates above refer to the full screens.

SMILES	rRNA inh HTS	rRNA inh HTS OD600	rRNA inh HTS RFP	ALR inh	UCH37 DUB inh	Beta2AR agonist	E coli growth	FGF22 binding	HNF4A DNA FP
Cc1nnc(SCC(=O)NCC(=O)Nc2ccc(F)c(F)c2F)n1Cc1ccccc1	2	-4	-1.6	9	0.7	-2	0.68	i	-2.2
CCOc1ccc(CCNC(=O)c2cccc(S(=O)(=O)N3CC(C)OC(C)C3)c2)cc1OCC (stereo unspecified)	8	10	3.2	1	-1.5	-7	0.7	i	0.8
Cc1ccc(-c2cn3c(n2)SCC3)cc1	5	7	-0.8	98*	1.6	-2	0.67	i	4.3
NC(Cc1ccc(Cl)cc1)c1csc(Nc2ccc(S(N)(=O)=O)cc2)n1 (stereo unspecified)	-1	-41	-5.2	.	.	.	.	i	5.2
Cc1ccccc1NC(=O)NCCc1c[nH]c2ccccc12	-9	0	-8.2	21	4.4	-2	0.64	i	2.1
CC(=O)c1c(OC(=O)c2ccccc2)ccnc1C(F)(F)F	11	18	2.7	.	1.4	4	0.69	i	0.5
COC(=O)c1cc(Sc2cccc(Cl)c2Cl)ccn1	-20	-29	-24	4	2.4	5	0.71	i	0.4
CCOC(=O)C1CCCN(C(=O)c2cnn3c(C(F)F)cc(-c4ccc(C)cc4)nc23)C1 (stereo unspecified)	.	.	.	-6	-20	1	0.77	.	7.2
Cc1nc2c(C)cccc2cc1C(=O)N/N=C/c1cccc([N+](=O)[O-])c1	3	1	-5.2	98*	.	14	.	i	11
C#Cc1ccc(NC(=O)C2(C)CCN2C(=O)c2cc(C)n(C)n2)cc1 (stereo unspecified)	-5	-19	-2.3	.	.	.	.	i	5.6
COc1ccc(/C=C2\N=C3CCCN3C2=O)cc1	-2	-6	-5.3	1	15	-1	0.67	i	2.3
Cc1cnc(NC(=O)Cc2ccc(C)c(C)c2)s1	0	5	-0.3	-3	-2.6	-6	0.69	i	4.7
O=C(/C=C/c1ccccc1)N1c2ccccc2Sc2ccc(C(F)(F)F)cc21	.	.	.	6	5.5	8	0.73	.	3.0
Cc1cc(Nc2ccc(F)c(F)c2)nc(-c2ccccc2O)n1	8	8	1.4	-2	-198	-5	0.7	i	-2.2
C/C=C(\C)CN1CCN(c2ccccc2)CC1	.	.	.	28	0.7	4	0.7	.	-1.9
CCc1nnc(NC(=O)CSc2nc3c(c(=O)n2C)SC(C)C3)s1 (stereo unspecified)	0	10	-7.8	-28	11	-6	0.77	i	1.1
O=C(/C=C/c1ccccc1)NCc1ccc2c(c1)OCO2	5	3	1.8	-2	0.0	0	0.67	i	3.0
CC(=O)CCc1ccc(OCC(=O)Nc2cccc(S(=O)(=O)N(C)c3ccccc3)c2)cc1	-9	-11	3.7	.	4.7	9	0.7	i	-3.4
CN(C(=O)c1ccc(COc2ccccc2Cl)o1)c1ccccc1	-56	-70	-18	1	1.6	2	0.61	i	-0.7
Cn1c(=O)c2c(nc(Sc3ncnn3CC(=O)NC3CCCCC3)n2C)n(C)c1=O	4	-3	-6.6	10	1.4	6	0.72	i	-1.7
CCC1=NN2C(=N)/C(=C/c3ccc(OS(=O)(=O)c4ccccc4)c(OC)c3)C(=O)N=C2S1	-8	-4	2.9	35	2.2	13	0.64	i	2.8
Clc1ccccc1NN=Cc1ccccn1	-11	-32	-2.2	.	.	.	.	i	-4.4
N=C(N)SCc1ccccc1Cl	.	.	.	100*	4.4	1	0.53	.	-0.8
O=C1C=C(c2cccc(Cl)c2O)C[C@@H](c2ccc(F)cc2)C1	-52	-76	-26	20	0.8	3	.	i	1.3
CN1CCN(C(=O)c2cc3c(n(-c4ccccc4)c2=O)CC(C)(C)CC3=O)CC1	.	.	.	.	0.4	-4	0.69	.	-2.1
COc1cc(OC)c2c(-c3cccc(-c4ccc(NC(C)=O)cc4)c3)cc(=O)oc2c1	-14	-8	-2.7	.	2.2	11	0.7	i	0.8
COc1ccc(CN2CCCCC2C)c(C)c1C (stereo unspecified)	.	.	.	-4	0.9	-3	0.74	.	-3.9
COCCNC(=O)Cn1nc(C)c([N+](=O)[O-])c1C	6	10	-3.3	-2	0.9	-1	0.68	i	0.6
CCOc1ccc(CC(C(N)=O)C(N)=O)cc1	8	11	2.5	-5	-0.9	10	0.68	i	1.6
O=C(CSc1nc2ccccc2c(=O)n1-c1ccccc1)NCc1ccc2c(c1)OCO2	.	.	.	-3	4.2	2	0.65	.	1.3
O=C(NC1CC1)c1ccc(S(=O)(=O)NCC2CCCCC2)cc1	5	1	-1.9	-1	2.3	-7	0.73	i	-0.7
Cc1cc(C(=O)COC(=O)C23CC4CC(CC(O)(C4)C2)C3)c(C)n1C	14	11	5.3	-2	3.3	0	0.68	i	-1.0
Cc1cccc(C(=O)Nc2ccc(CC(=O)O)cc2)c1	.	.	.	6	4.9	5	0.69	.	8.5
C/C(=N\NC(=O)c1nnn(-c2nonc2N)c1CN(C)C)c1ccco1	7	17	3.0	-6	.	-2	.	i	1.3
Cn1c(N)c(C(=O)COC(=O)CCC2CCCC2)c(=O)n(C)c1=O	-27	-28	0.8	28	6.6	16	0.71	i	-4.1
COc1ccc(NC(=O)COC(=O)c2ccc(O)cc2)c([N+](=O)[O-])c1	0	-6	-5.0	-2	3.3	5	0.69	i	0.0
CNC(=O)CN1C(=O)C2C3C=CC(C3)C2C1=O (stereo unspecified)	.	.	.	.	4.1	-4	0.66	.	0.1
CN(CC(=O)Nc1ccc(F)c(F)c1F)C(=O)c1cc(S(=O)(=O)N(C)C)ccc1N1CCCC1	1	2	0.5	.	-2.1	-10	0.68	i	-1.2
C=CCn1c(SCC(=O)O)nnc1-c1cccc(Cl)c1	.	.	.	1	4.1	0	0.75	.	-2.5
N#Cc1cccc(C#N)c1N1CCC(C#N)CC1	7	3	-0.4	-2	-76	-4	0.65	.	2.7
COc1cccc(NC(=O)COC(=O)C2CC(=O)N(c3ccc(C)cc3)C2)c1 (stereo unspecified)	2	-2	4.1	.	-3.1	-3	0.68	i	2.9
Cc1c(Cl)cccc1NC(=O)CNC(=O)c1cn(-c2ccccc2)nc1-c1cccnc1	1	6	3.9	.	1.5	10	0.67	i	2.8
CNc1ncnc(Sc2ccc(Cl)cc2)c1[N+](=O)[O-]	13	27	1.0	-2	4.3	1	0.71	i	-0.1
CCCC(c1nnnn1C(C)(C)CC)N1CCN(C2CCCC2)CC1 (stereo unspecified)	.	.	.	9	3.3	-7	0.77	.	4.3
COc1cccc(N2C(=O)C3ON(c4ccccc4)C(c4cccs4)C3C2=O)c1 (stereo unspecified)	7	3	1.7	-7	2.4	0	0.76	i	-0.7
CC(C)OC(=O)N(C)C[C@@H]1OCc2cnnn2CCCC(=O)N([C@H](C)CO)C[C@@H]1C	2	5	1.0	.	.	.	.	i	0.2
Cc1cccc(NC(=O)c2cccc(C(=O)Nc3cccc(C)c3C)n2)c1C	20	13	1.1	-11	-27	4	0.68	i	-2.0
Clc1ccc(OCCCNCc2ccccc2)c(Br)c1	.	.	.	-4	8.0	-13	0.58	.	3.5
CCC(=O)Oc1ccc2c(c1)OC1(OC(C)=O)OC(C)CC1=C2C (stereo unspecified)	-5	-6	1.1	14	i	1	0.69	i	0.9
COc1ccc(C(=O)c2[nH]c(N)c(C(=O)NCCc3c[nH]c4ccccc34)c2-c2ccccc2Br)cc1	11	-11	13	.	.	.	.	i	3.0
CCCOc1ccc(F)cc1-c1cc(C(=O)Nc2ccc(OC)c(OC)c2)[nH]n1	-10	-19	-0.4	.	.	.	.	i	-1.5
O=C(OCCc1cc2ccccc2c(=O)o1)c1ccc2c(c1)OCO2	-30	-45	-10	13	-0.4	-4	0.64	i	9.2
O=C(N[C@@H](Cc1ccccc1)C(=O)CCl)OCc1ccccc1	.	.	.	97*	5.8	47*	.	i	-1.0
N#Cc1ccc(N2C(=O)[C@@H]3C(C(=O)C(c4ccccc4)c4ccccc4)=NN[C@@H]3C2=O)cc1	-18	29	15	1	4.6	5	0.68	i	0.7
O=C(O)c1ccc(CN2CCOCC2)o1	20	11	-0.2	.	5.0	8	0.69	i	2.7
Clc1ccc(-n2nnnc2Sc2ncnc3sccc23)cc1	.	.	.	16	3.4	54*	0.69	.	3.5
O=C(Nc1ccccc1Cl)NC1(C(=O)N2CCCC2)CCCCC1	.	.	.	-21	-2.4	6	0.74	.	-0.4
CCOC(=O)c1ccc(N/C(=N\S(=O)(=O)c2ccc(F)cc2F)c2ccccc2)cc1	.	.	.	0	.	-8	.	.	1.1
COc1ccc(S(=O)(=O)n2[nH]c(=O)c(CCO)c2C)cc1	3	-2	-5.2	-3	2.2	3	0.7	i	5.2
Cc1ccc(S(=O)(=O)N(C)c2ccc(C(=O)Nc3cccnc3)cc2)cc1	-8	-11	5.1	-1	1.3	-13	0.63	i	-2.1

A portion from further up, for reference:
SMILES	rRNA inh HTS	rRNA inh HTS OD600	rRNA inh HTS RFP	ALR inh	UCH37 DUB inh	Beta2AR agonist	E coli growth	FGF22 binding	HNF4A DNA FP
Clc1ccc(-n2nnnc2Sc2ncnc3sccc23)cc1	.	.	.	16	3.4	54*	0.69	.	3.5
O=C(Nc1ccccc1Cl)NC1(C(=O)N2CCCC2)CCCCC1	.	.	.	-21	-2.4	6	0.74	.	-0.4
CCOC(=O)c1ccc(N/C(=N\S(=O)(=O)c2ccc(F)cc2F)c2ccccc2)cc1	.	.	.	0	.	-8	.	.	1.1
COc1ccc(S(=O)(=O)n2[nH]c(=O)c(CCO)c2C)cc1	3	-2	-5.2	-3	2.2	3	0.7	i	5.2
Cc1ccc(S(=O)(=O)N(C)c2ccc(C(=O)Nc3cccnc3)cc2)cc1	-8	-11	5.1	-1	1.3	-13	0.63	i	-2.1

Remaining list, next part.
SMILES	rRNA inh HTS	rRNA inh HTS OD600	rRNA inh HTS RFP	ALR inh	UCH37 DUB inh	Beta2AR agonist	E coli growth	FGF22 binding	HNF4A DNA FP
COCCNc1c(-c2cc3ccc(C)c(C)c3[nH]c2=O)nc2ccccn12	11	3	-1.4	.	8.9	-17	0.68	.	0.7
O=C(CN1CCC(C(=O)O)CC1)Nc1ccccc1Oc1ccccc1	4	3	0.7	-18	0.8	1	0.66	i	-0.1
COc1ccccc1CCn1cnc(Cc2ccccc2)c1C(C)C	-26	-53	-13	.	.	.	.	i	6.2
NS(=O)(=O)c1ccc(CCNC(=O)COC(=O)Cc2ccc(Cl)cc2)cc1	4	13	-1.1	.	.	.	.	i	3.5
CCCNC(=O)c1cc(S(=O)(=O)N2CCc3ccccc32)cn1C	-6	-4	-0.4	-15	3.1	4	0.77	i	2.7
CC(OC(=O)CCN=C1NS(=O)(=O)c2ccccc21)C(=O)Nc1ccc(F)c(F)c1F (stereo unspecified)	3	5	0.1	-3	1.2	0	0.63	i	-0.1
CCOC(=O)C1=C(C)NC2=C(C(=O)CCC2)C1c1ccc(N(C)C)cc1 (stereo unspecified)	.	.	.	74	-1.1	-9	0.7	.	8.8
COc1ccc(N2CCN(C(=O)NC3CC(=O)N(c4ccc(OC)cc4)C3)CC2)cc1 (stereo unspecified)	5	20	1.5	70	0.2	1	0.67	i	7.3
COCCNC(=O)C(c1ccc(F)cc1)N(Cc1ccco1)C(=O)CCC(=O)Nc1ccccn1 (stereo unspecified)	.	.	.	-5	4.0	2	0.66	i	5.5

Screens as filed in PubChem BioAssay.
